High-throughput results as filed in PubChem BioAssay.
ALR H2O2 inh: inhibitors of human ALR sulfhydryl oxidase, primary screen, biochemical, H2O2 detection, HRP-luminol luminescence, single point | AID 485317, 2010 | inhibition, % (test concentration not listed) | purified ALR, DTT oxidation | FAD-linked sulfhydryl oxidase ALR (Homo sapiens), P55789 | hit rate 3.8% among 290,000;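 active = mean and each replicate at 75% or more; inconclusive = only one of the two met; inactive = neither met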;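 also: stock transfer was 7.5 nL into about 7.5 µL; 0% = neutral wells and 100% = wells with inactivated enzyme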
Target sequence (P55789 whole entry, looked up): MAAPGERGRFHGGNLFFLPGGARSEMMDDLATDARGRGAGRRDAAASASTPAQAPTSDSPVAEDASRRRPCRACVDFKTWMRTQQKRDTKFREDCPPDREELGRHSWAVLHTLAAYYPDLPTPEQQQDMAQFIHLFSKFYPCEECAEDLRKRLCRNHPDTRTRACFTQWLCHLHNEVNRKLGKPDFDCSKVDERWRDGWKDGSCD
Ecoli growth: E. coli growth inhibition, primary screen, OD600; hit rate 0.21% among 330,000; AID 1053175, 2014; OD600 absorbance (test concentration not listed); Escherichia coli growth, 23 h; hits give low values;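 active = OD600 absorbance below the run mean of sample wells minus 3.6 SD, in any replicate, cut at about 0.56 in these data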;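 also: stock transfer was 300 nL into about 60 µL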
FGF22 binding: binders of human FGF22 protein, primary screen, FGF22 synaptogenesis inhibitor project, biophysical, thermal shift, single point. hit rate 1.5% among 340,000. recombinant FGF22 thermal shift, SYPRO orange fluorescence; percent of sucrose octasulfate shift, DMSO zero. calls only at 9.99 µM. Fibroblast growth factor 22 (Homo sapiens), Q9HCT0;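 active = melting point raised past a set limit in the mean and every replicate; inconclusive = no clear call; three in four hits are not shown here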
Target sequence (Q9HCT0 whole entry, looked up): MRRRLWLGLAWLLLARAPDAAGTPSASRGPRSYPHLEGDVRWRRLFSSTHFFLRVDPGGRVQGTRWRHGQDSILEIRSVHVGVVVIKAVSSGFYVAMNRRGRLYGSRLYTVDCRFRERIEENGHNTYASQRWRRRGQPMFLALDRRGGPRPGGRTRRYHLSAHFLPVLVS
HNF4A DNA FP: change in binding of human HNF4A to DNA, primary screen, biochemical, fluorescence polarization, FITC-DNA; Hepatocyte nuclear factor 4-alpha (Homo sapiens), P41235; activity change, % at 10 µM; 1 h; AID 1224865, 2016; hit rate 0.3% among 360,000; in the data active = activity change above about 30%, passing the limit was not always enough;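 also: controls were the assay level and a saturating level of protein; the project sought stronger binding though the title names inhibitors; some compounds called inactive have numbers as strong as hits; positive values seem to mean higher polarization but the record does not say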
Ecoli rRNA inh: reduced GFP signal of wild-type E. coli, primary screen, bacterial rRNA inhibitor project, GFP/RFP fluorescence, OD600, single point; E. coli WT GFP vs humanized-ribosome RFP mutants, 24 h; hits give low values; DMSO median 0, no signal -100; GFP signal change (wild-type ribosome), % (no concentration beside the values); hit rate 1.6% among 350,000; AID 720706, 2013;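 active = significant combined selectivity score with lowered wild-type GFP, culture density cut under 30%, mutant RFP and density less affected; inactive = any of these conditions unmet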; also: one replicate is shown; some compounds called inactive have numbers as strong as hits
Vif A3G: inhibitors of Vif binding to APOBEC3G peptide, primary screen, biochemical, TR-FRET, GST-Vif 1-94, biotin-A3G peptide, dose response retest (AID 1117319); inhibition, %, or IC50 in µM where a hit was titrated; TR-FRET GST-Vif / biotin-A3G peptide binding; higher % means a stronger effect; test concentration not given here; strong numbers were not always called active; hit rate 0.57% among 260,000;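 active = above the screen mean plus three standard deviations and confirmed in dose response; inconclusive = results disagree or hit not tested in dose response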;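 also: Vif residues 1-94 fused to GST binding biotinylated APOBEC3G peptide 110-148; 0% = full assay without inhibitor and 100% = GST in place of GST-Vif; retest series ran down from 100 µM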
AF4-AF9 inh: inhibitors of AF4 peptide binding to AF9, primary screen, biochemical, AlphaScreen, biotin-AF4 peptide, FLAG-AF9, single point; inhibition, % at 10 µM; hit rate 0.47% among 350,000; AID 651704, 2012;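 active = every replicate reaching a set inhibition limit, whatever the replicate mean, cut at about 25% in these data; inconclusive = mean inhibition reaches that limit but some replicates miss it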;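 also: 0% = plate neutral control median and 100% = total signal loss; the record names both 10 and 1 µM as test concentration; the first replicate is given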
Target sequence (P42568 whole entry, looked up): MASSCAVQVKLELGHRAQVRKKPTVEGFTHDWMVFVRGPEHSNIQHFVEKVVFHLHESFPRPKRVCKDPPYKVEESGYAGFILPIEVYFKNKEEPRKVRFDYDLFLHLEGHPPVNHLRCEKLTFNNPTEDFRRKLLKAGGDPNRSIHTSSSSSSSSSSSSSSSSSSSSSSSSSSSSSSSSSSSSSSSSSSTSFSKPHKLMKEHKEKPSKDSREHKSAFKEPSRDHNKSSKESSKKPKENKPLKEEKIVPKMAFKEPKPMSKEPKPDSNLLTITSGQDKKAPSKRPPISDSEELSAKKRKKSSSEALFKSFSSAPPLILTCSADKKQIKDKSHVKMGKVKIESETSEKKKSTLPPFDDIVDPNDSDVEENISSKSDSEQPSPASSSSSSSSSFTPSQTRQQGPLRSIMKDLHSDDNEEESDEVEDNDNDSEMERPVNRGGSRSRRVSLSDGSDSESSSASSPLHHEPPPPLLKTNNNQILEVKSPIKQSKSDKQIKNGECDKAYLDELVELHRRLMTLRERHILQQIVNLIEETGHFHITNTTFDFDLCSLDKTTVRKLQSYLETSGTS
Ecoli rRNA inh OD600: recorded beside Ecoli rRNA inh, whose call it bears; OD600 change, %; measured here: OD600 growth;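 optical density of the mix in the first replicate; 0 = DMSO median and -100 = no signal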
Ecoli rRNA inh RFP: second read-out of Ecoli rRNA inh, no call of its own (marks repeat the call); RFP signal change, %; measured here: RFP humanized mutant strains;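 first replicate; 0 = DMSO median and -100 = no signal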
Numbers without * were called inactive; i = inactive; ? = inconclusive; . = no result given; & = joins results of further samples. This is a subset, so the mix of outcomes need not match the whole.

SMILES | ALR H2O2 inh | Ecoli growth | FGF22 binding | HNF4A DNA FP | Ecoli rRNA inh | Ecoli rRNA inh OD600 | Ecoli rRNA inh RFP | Vif A3G | AF4-AF9 inh
O=C(c1ccco1)n1c(=S)nc2ccccn21 | -4.1 | 0.715 | . | 4.4 | . | . | . | 2.4% | .
CO[C@H](C(=O)N(C)C[C@H]1OCc2ccccc2-c2ccccc2C(=O)N([C@H](C)CO)C[C@H]1C)c1ccccc1 | . | . | i | . | -1.2 | 3.2 | -0.1 | . | -4.6
CCC(=O)N1C[C@@H]2[C@H](c3ccccc31)[C@@H](CO)N2C(=O)CC1CC1 | . | . | i | . | 0.5 | -0.4 | -1.7 | . | -1.9
Cc1ccc(C2(C)NC(=O)N(CC(=O)N3CCN(S(=O)(=O)c4ccc(Cl)s4)CC3)C2=O)cc1 (centres undefined) | 1.9 | 0.713 | i | 4.2 | -5.2 | -0.8 | 5.1 | 4.1% | 0.7
COC(=O)c1cccc(CSc2nc3ccccc3[nH]2)c1 | -4.8 | 0.693 | i | 2.2 | -10.5 | -17.8 | -4.0 | -6.8% | -0.6
N#Cc1ccc(-c2ccc(OCC(=O)NN=Cc3ccncc3)cc2)cc1 | -4.1 | 0.672 | i | 6.4 | . | . | . | -5.7% | -1.6
CC(=O)c1cccc(NC(=O)Cn2c(=O)oc3cc(S(=O)(=O)N4CCCC4)ccc32)c1 | -18.9 | 0.649 | . | 2.1 | 5.3 | 5.8 | -2.3 | 3.8% | -3.0
Cc1ccc(-n2c(SCC(N)=O)nc3c(c2=O)C2(CCCC2)Cc2ccccc2-3)cc1 | . | 0.715 | . | -0.2 | . | . | . | -6.5% | .
Cc1ccc(S(=O)(=O)N(C)C[C@H]2Oc3c(cccc3N(C)C)C(=O)N([C@H](C)CO)C[C@H]2C)cc1 | . | . | i | . | 2.4 | -3.8 | 0.9 | . | -2.0
C[C@@H]1CN([C@@H](C)CO)C(=O)c2cccc(NC(=O)c3ccc(-c4nccs4)cc3)c2O[C@@H]1CN(C)Cc1ccc2c(c1)OCO2 | . | . | i | . | -2.0 | -3.4 | 0.6 | . | -11.2
O=[N+]([O-])c1ccc(N2CCc3ccccc3C2)nc1 | -11.2 | 0.672 | i | -1.5 | 1.2 | -14.5 | 39.7 | . | 8.6
Cc1noc(C)c1NC(=O)Nc1ccc2c(c1)CC(=O)N([C@H](C)CO)C[C@H](C)[C@@H](CN(C)C)O2 | . | . | i | . | 6.8 | 2.7 | -2.1 | . | -2.8
Cc1cc(C)nc(NC(=O)c2ccc(Cl)cc2)n1 | -2.8 | 0.685 | i | 2.4 | 16.3 | 6.5 | -0.8 | 11.6% | 0.0
COc1ccc(CCC(=O)N2c3ccccc3N=C(c3ccc4c(c3)OCO4)C2C(=O)NCc2ccccc2)cc1 (centres undefined) | . | . | i | -1.2 | 5.6 | 13.1 | 0.4 | . | 1.5
COc1ccccc1NC(=O)N1C2CCCC1CC(NC(=O)c1ccccc1)C2 (centres undefined) | . | 0.68 | i | 0.9 | 10.7 | 12.7 | 1.8 | 29.3% | -0.8
Cc1nc2c(=O)[nH]c(=S)[nH]c2[nH]c1=O | . | 0.664 | i | -39.2 | 15.7 | 20.9 | 2.1 | 50.7µM* | -8.4
COC(=O)[C@]12C[C@H](CC(=O)NCCCCc3ccccc3)C(=O)N(Cc3ccccc3)C1=C[C@H](C(C)C)O[C@@H]2C1CC1 | . | . | i | . | 6.8 | 4.2 | 6.2 | . | 0.4
C[C@@H]1CN([C@@H](C)CO)C(=O)c2cc(C3=CCCC3)cnc2O[C@@H]1CN(C)C(=O)NC1CCCC1 | . | . | i | . | 3.4 | 7.2 | -3.1 | . | -24.5
Cc1ccc(OCc2nnc(-c3ccc(Cl)cc3)o2)cc1 | 7.3 | 0.645 | i | 1.1 | . | . | . | . | -4.0
COCC(=O)Nc1ccc2c(c1)OC[C@H](C)N(CC1CCCCC1)C[C@H](C)[C@@H](OC)CN(C)C2=O | . | . | i | . | -3.8 | -11.3 | 0.7 | . | 4.0
CCOc1ccc2nc(N3CCC(C(=O)NCCCN4CCOCC4)CC3)sc2c1 | . | 0.637 | i | 3.0 | 5.7 | 2.7 | 3.6 | ? | 2.4
C[C@@H]1CN([C@H](C)CO)C(=O)c2cc(/C=C/c3ccccc3)cnc2O[C@@H]1CN(C)Cc1ccc2c(c1)OCO2 | . | . | i | . | -1.6 | -3.1 | 15.3 | . | 2.0
C(=N/n1c2ccccc2c2ccccc21)/c1ccco1 | -15.2 | . | . | 1.1 | . | . | . | 11.9% | .
CC(CCCC(C)(C)O)NC(=O)c1cc(COc2ccc3ncccc3c2)on1 (centres undefined) | -14.9 | 0.702 | i | -1.3 | -6.1 | 2.0 | -0.7 | -11.7% | -1.0
CCNC(=O)C[C@@H]1CC[C@H]2[C@@H](COc3ccc(NC(=O)c4cscn4)cc3C(=O)N2C)O1 | . | . | i | . | 1.8 | 1.8 | -2.4 | . | -1.3
COCOCCn1cc(CN2CCS(=O)(=O)N(Cc3ccc(-c4ccc(Cl)nc4)cc3)C(C)C2=O)nn1 (centres undefined) | . | . | i | 3.5 | -14.2 | -8.4 | -4.6 | 0.5% | -1.4
Cc1nnc(NC(=O)C2(c3ccccc3)CCOCC2)s1 | 2.2 | 0.674 | . | -1.3 | . | . | . | -3.3% | .
Cc1ccc(C(=O)N/N=C\c2ccc(-c3ccc(Cl)c(Cl)c3)o2)cn1 | -15.8 | . | i | 2.5 | -1.2 | -8.3 | -0.7 | . | 4.4
C[C@H]1CN([C@@H](C)CO)C(=O)c2cccc(NC(=O)c3ccncc3)c2O[C@@H]1CN(C)C(=O)NC1CCCCC1 | . | . | i | . | 6.7 | 8.4 | 0.7 | . | -1.2
COC(=O)C1=NNCC12CC(=O)N(c1ccc(Br)cc1)C2=O (centres undefined) | 4.8 | 0.709 | i | -4.2 | -6.3 | -16.0 | -3.5 | 18.9% | 1.6
C[C@H](NC(=O)OCc1ccccc1)C(=O)NNC(=O)[C@H](Cc1ccccc1)NC(=O)OC(C)(C)C | -1.7 | . | i | 0.3 | 10.8 | 20.3 | 1.4 | . | -1.8
COc1ccccc1NC(=S)NC(=O)c1ccc(-c2ccc(Cl)cc2)o1 | 4.4 | 0.735 | . | -3.1 | . | . | . | 5.8% | .
CCOC(=O)c1c(C)nsc1NC(=O)c1ccco1 | -5.2 | 0.717 | i | -0.8 | -6.8 | 3.5 | -2.1 | . | -11.3
CNC(=O)Cn1nc(-c2ccc(C)c(S(=O)(=O)N(C)C)c2)c2ccccc2c1=O | -26.6 | 0.683 | . | 4.0 | . | . | . | -9.7% | .
CC(=O)N(C)C[C@@H]1Oc2cc(/C=C/c3ccccc3)ccc2S(=O)(=O)N([C@H](C)CO)C[C@@H]1C | . | . | i | . | -6.8 | -4.8 | 1.5 | . | 7.0
COCC(=O)N(C)C[C@H]1Oc2cc(-c3ccc(C)cc3)ccc2S(=O)(=O)N([C@@H](C)CO)C[C@@H]1C | . | . | i | . | -6.7 | -7.1 | 0.4 | . | -1.6
COc1cc(NC(=O)C2CC(=O)NC3=C2C(=O)CCC3)cc(OC)c1 (centres undefined) | 17.0 | 0.661 | i | 2.9 | 7.1 | -1.3 | -2.8 | 9.9% | ?
COCC(=O)N1CC(=O)N2[C@H](CO)[C@H](c3ccc(C#CCc4ccccc4)cc3)[C@H]2C1 | . | . | i | . | 1.9 | -8.7 | 1.3 | . | -4.6
CCCOc1ccc(C(=O)C(c2ccccc2)N2CCOCC2)cc1 (centres undefined) | 2.8 | 0.742 | . | -2.3 | . | . | . | 28.6% | .
COc1ccc(CN(C)C[C@H]2Oc3c(NC(=O)C4CCCCC4)cccc3C(=O)N([C@H](C)CO)C[C@H]2C)cc1 | . | . | i | . | -2.0 | 2.1 | -2.3 | . | -1.8
CCOC(=O)C/C(C)=N\Nc1nc(-c2ccccc2)cs1 | . | . | i | -1.0 | -4.6 | 1.3 | 3.8 | 27.4% | 4.7
C#CCOCCOCCOCCNc1nc(N2CCN(C(=O)C([C@@H](C)CC)n3cc(C(N)CO)nn3)CC2)nc(N2CCN(C(=O)[C@H](CCC(=O)O)n3cc(C(N)CC(C)C)nn3)CC2)n1 (some centres undefined) | 0.4 | . | . | -2.7 | . | . | . | 0.1% | .
O=C(NC1CCCC1)c1cccc(NC(=O)c2ccco2)c1 | -3.9 | 0.704 | . | -4.8 | . | . | . | -5.7% | .
Cc1noc(C)c1NC(=O)Nc1ccc2c(c1)C(=O)N([C@H](C)CO)C[C@H](C)[C@H](CN(C)Cc1ccc(C(F)(F)F)cc1)O2 | . | . | i | . | 2.2 | -14.1 | 4.1 | . | 3.3
CCn1cc(/C=C(\NC(=O)c2ccccc2)C(=O)NCCCN2CCOCC2)c2ccccc21 | 6.5 | 0.69 | i | 3.0 | 9.6 | 11.2 | 4.1 | 4.0% | 0.4
Cc1cc([N+](=O)[O-])nn1CCC(=O)NC1CCCCCC1 | -3.8 | 0.715 | . | -2.6 | . | . | . | -0.8% | .
O=C(Nc1ccccc1-c1ccccc1)c1ccccc1 | -2.1 | 0.708 | i | -3.9 | -23.3 | -19.9 | -3.0 | . | -2.0
O=c1cc(N2CCC3(CC2)OCCO3)[nH]c(=O)n1-c1ccc(Br)cc1 | . | 0.662 | . | 6.0 | . | . | . | -2.2%&6.8% | .
N#C/C(=C\c1c(F)cccc1Cl)S(=O)(=O)c1ccccn1 | 0.6 | 0.647 | i | -0.9 | 14.7 | 0.1 | 8.2 | 5.4% | .
CN(C)S(=O)(=O)c1cccc(COC(=O)c2ccc(Cl)cc2O)c1 | -8.8 | 0.692 | i | 5.3 | -17.0 | -15.2 | 3.0 | . | 2.1
CC(C)n1c(-c2ccc(C(C)(C)C)cc2)n[nH]c1=S | 82.4* | 0.631 | . | -0.5 | . | . | . | -7.4% | .
CC(C)(C)c1ccc(C(=O)N/C(=C\c2cccs2)C(=O)NCc2ccco2)cc1 | -6.8 | 0.705 | . | -3.4 | . | . | . | -2.7% | .
Clc1ccc(Nc2ncnc3c2cnn3-c2ccccc2)cc1 | 0.8 | 0.699 | i | 0.8 | -8.8 | -3.9 | 4.5 | ? | -6.8
Cc1ccc(NC(=O)C(=O)NCCOc2ccccc2Cl)cc1 | -7.9 | 0.725 | i | 1.0 | 17.2 | 14.2 | -9.2 | . | 1.5
Cc1cccc(N=Nc2c(C)[nH]n(-c3ccccc3)c2=O)c1 | -1.4 | 0.689 | . | 2.0 | 20.9 | 20.5 | 10.5 | 1.6% | 3.6

Record cards (already shown). Order of values: ALR H2O2 inh, Ecoli growth, FGF22 binding, HNF4A DNA FP, Ecoli rRNA inh, Ecoli rRNA inh OD600, Ecoli rRNA inh RFP, Vif A3G, AF4-AF9 inh
Cc1cc([N+](=O)[O-])nn1CCC(=O)NC1CCCCCC1 is listed with -3.8, 0.715, ., -2.6, ., ., ., -0.8%, .
C#CCOCCOCCOCCNc1nc(N2CCN(C(=O)C([C@@H](C)CC)n3cc(C(N)CO)nn3)CC2)nc(N2CCN(C(=O)[C@H](CCC(=O)O)n3cc(C(N)CC(C)C)nn3)CC2)n1 (some centres undefined) is listed with 0.4, ., ., -2.7, ., ., ., 0.1%, .
